ClpP mod – qHTS Assay for Activators of ClpP. purified B. subtilis ClpP, FRET peptide cleavage, 20 min. actives 1.9% (n = 340,000). ATP-dependent Clp protease proteolytic subunit (Bacillus subtilis (strain 168)), P80244. Potency, µM (titrated, usually from 57.5 µM), for the others: top-dose activity change, negative = active. AID 651965, 2013; active = well fitted falling curve with a large enough effect; inconclusive = small, poorly fitted or top-dose-only effect; inactive = no such curve, though single readings can be large or run the other way; also: potency is read from the fitted curve at half-maximal effect; the source files actives as falling curves though it sought activators and does not explain the sign; nearly all actives have a fitted effect of over 65% in size; many hits overshoot -100%
Target sequence (P80244 whole entry, looked up): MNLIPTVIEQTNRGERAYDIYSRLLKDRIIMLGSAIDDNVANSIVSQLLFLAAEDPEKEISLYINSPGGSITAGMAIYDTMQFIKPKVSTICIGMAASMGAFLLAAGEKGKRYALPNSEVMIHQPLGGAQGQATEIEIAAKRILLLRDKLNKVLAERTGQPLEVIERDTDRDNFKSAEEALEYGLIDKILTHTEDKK
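Buffer: 100 mM Tris/HCl pH8, 100 mM KCl, 0.05% low protease BSA, 2.5% glycerol, 0.01% Tween-20. ClpP 10 microg/mL final; 20 min RT; delta FRET normalized to ADEP and DMSO controls.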
Sfp inh – qHTS Assay for Inhibitors of Bacillus subtilis Sfp phosphopantetheinyl transferase (PPTase); 4'-phosphopantetheinyl transferase ffp (Bacillus subtilis), Q9F4F7; Biochemical Sfp PPTase activity, qHTS; Potency, µM, inactives show max response, negative = inhibition, most hits filed as inhibitors; actives 3.5% (n = 310,000); AID 1490, 2009; active = well fitted inhibition curve with a large enough effect; inconclusive = small, poorly fitted or top-dose-only effect, or another doubt; inactive = no such curve, though single readings can be large or run the other way;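 also: the enzyme is Sfp with the accession as filed and its product quenches rhodamine fluorescence; potency is read from the fitted curve at half-maximal effect; 0% = enzyme reaction without inhibitor and -100% = no enzyme wells; top concentration of the series not given in the record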
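Buffer: 50 mM Hepes-Na pH 7.6, 10 mM MgCl2, 0.01% Nonidet P-40, 0.01% BSA. Enzyme 15 nM, pre-exposed to compound 15 min; substrates then added and fluorescence change tracked over 30 min.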
gsp antagonist – qHTS for Antagonists of gsp, the Etiologic Mutation Responsible for Fibrous Dysplasia/McCune-Albright Syndrome: qHTS; AID 624288, 2012; Potency, µM (top dose mostly 76.9 µM), inactives show at the highest dose activity change, negative = inhibition, most hits filed as inhibitors; gsp-mutant cells, cAMP HTRF, 30 min; control for the full effect not named in the record; actives 0.4% (n = 340,000); active = falling curve of any shape with a large fitted effect; inconclusive = falling curve, mostly with a smaller effect; inactive = flat or rising curve; cell line not stated here;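 also: intracellular cAMP measured with PDE inhibitor Ro 20-1724 present during compound exposure; potency is read from the fitted curve at half-maximal effect; % is scaled to controls: 0 for no effect and ±100 for the full control effect; nearly all actives have a fitted effect of over 65% in size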
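HTRF cAMP measurement after 30 min RT detection following 30 min, 37C compound treatment alongside […] (added as 300 uM solution) in G418-selected cells seeded at 2000/well and grown 16–24 h.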
Menin MLL FP FL – qHTS Assay for Inhibitors Targeting the Menin-MLL Interaction in MLL Related Leukemias: Competition With Fluorescein Labeled MLL-derived Peptide; Fluorescence polarization, fluorescein-MLL peptide displacement from menin; FP activity change, % at 61.4 µM; 290,000 tested, under 10 active; inconclusive = falling polarisation curve, or a change in total fluorescence; inactive = total fluorescence flat and polarisation flat or rising; no compound was filed as active; the % refers to the polarisation; negative = inhibition;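 also: % of control where 0% means no effect; inhibitors lower the polarisation; unlabelled MLL peptide was the positive control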
gsp ag – qHTS for Agonist of gsp, the Etiologic Mutation Responsible for Fibrous Dysplasia/McCune-Albright Syndrome: qHTS; actives 0.13% (n = 340,000); AID 624287, 2012; Potency, µM (top dose mostly 76.9 µM), without a hit: top-dose activation (cAMP increase), actives largely listed as activators; gsp mutant cells, cAMP HTRF, 30 min; control for the full effect not named in the record; active = well fitted activation curve with a large enough effect; inconclusive = small, poorly fitted or top-dose-only effect, or another doubt; inactive = no such curve, though single readings can be large or run the other way; cell line not stated here;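 also: phosphodiesterase inhibitor Ro 20-1724 added with compounds to block cAMP breakdown; potency is read from the fitted curve at half-maximal effect; nearly all actives have a fitted effect of over 60% in size; about a fifth of the inactives were tested at one dose only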
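Cells stably selected in G418 were plated at 2000/well, grown 16-24 hr, then given compounds in DMSO with the PDE inhibitor […] (300 uM solution added) for 30 min at 37C; cAMP was read by HTRF.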
TRPV1 potentiator – HTS Assay for Compounds that Act as Potentiators of the Vanilloid Receptor 1; potentiation, % at 8.33 µM; AID 540277, 2011; actives 0.02% (n = 320,000); TRPV1-expressing cells, Fluo-8 calcium influx, capsaicin EC20 potentiation; host cell line not named in the record; control for the full effect not named in the record; Transient receptor potential cation channel subfamily V member 1 (Homo sapiens), Q8NER1; active means potentiation above 80%; inconclusive means 30% to 80%; inactive means below 30%; also: 0% is about no effect
Target sequence (Q8NER1 whole entry, looked up): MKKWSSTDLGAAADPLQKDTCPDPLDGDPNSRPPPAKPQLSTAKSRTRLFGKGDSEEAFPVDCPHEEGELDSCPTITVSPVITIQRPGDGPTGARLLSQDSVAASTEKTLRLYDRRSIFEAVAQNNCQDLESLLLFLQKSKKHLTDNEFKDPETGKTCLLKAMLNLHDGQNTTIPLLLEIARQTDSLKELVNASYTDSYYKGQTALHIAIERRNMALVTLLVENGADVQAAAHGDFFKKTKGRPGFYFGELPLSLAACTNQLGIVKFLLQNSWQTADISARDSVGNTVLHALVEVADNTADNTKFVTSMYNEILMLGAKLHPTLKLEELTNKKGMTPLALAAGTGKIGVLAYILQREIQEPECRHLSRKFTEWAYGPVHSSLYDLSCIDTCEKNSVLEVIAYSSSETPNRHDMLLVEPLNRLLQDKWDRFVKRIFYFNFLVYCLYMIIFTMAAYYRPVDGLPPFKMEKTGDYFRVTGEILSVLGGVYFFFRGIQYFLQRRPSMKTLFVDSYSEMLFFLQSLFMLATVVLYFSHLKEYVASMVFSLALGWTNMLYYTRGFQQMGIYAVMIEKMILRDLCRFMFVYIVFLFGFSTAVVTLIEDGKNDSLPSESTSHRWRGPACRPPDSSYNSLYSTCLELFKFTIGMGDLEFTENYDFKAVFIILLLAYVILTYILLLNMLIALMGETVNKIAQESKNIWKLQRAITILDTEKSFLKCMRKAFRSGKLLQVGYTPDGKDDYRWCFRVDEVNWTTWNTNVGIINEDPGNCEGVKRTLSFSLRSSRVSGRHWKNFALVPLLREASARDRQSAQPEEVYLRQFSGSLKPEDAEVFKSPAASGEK
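Fluo-8 calcium influx in TRPV1-expressing cells, kinetic read (ex 480/em 520 nm). Compound added and read 3 min for agonist activity, followed by capsaicin at EC20 final and 2 min further read for enhancement.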
CtBP-E1A blk – qHTS Assay for Inhibitors of the CtBP/E1A Interaction; CtBP / adenovirus E1A interaction (AlphaScreen); AlphaScreen GST-E1A/His-CtBP binding, 1536-well; hits give low values; control for the full effect not named in the record; activity change, % (concentration not given with the values); actives 0.49% (n = 340,000); AID 651724, 2012; in the data active means activity change below about -65%; inconclusive means about -30% to -65%; inactive means above about -30%; also: % is scaled to controls: 0 for no effect and ±100 for the full control effect
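Steps: dispense buffer (Tris pH 8.0, NaCl 300 mM, TCEP 1 mM, BSA, Tween 20); add 5X protein mix (GST-E1A, His-CtBP, 125 nM each); pin 23 nL compound; 2 h at 37 °C, dark; add 5X beads (50 ug/mL); 1 h; read.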
* marks the source's active call; other numbers are inactive results; ? = inconclusive; . = no result given; & = joins results of further samples; [ ] = dose if it differs, or a comment.

SMILES	ClpP mod	Sfp inh	gsp antagonist	Menin MLL FP FL	gsp ag	TRPV1 potentiator	CtBP-E1A blk
c1ccc(-c2nnc(-c3ccncc3)nc2-c2ccccc2)cc1	.	-5%	6%	1.5	-5%[15.4 µM]	-8	-4
COCCCNC(=O)CCc1c(C)c2cc3c(C)coc3cc2oc1=O	.	4%	-12%	-7.4	-21%	-19	-6
COc1cccc(CCc2nnc(CCC(=O)NC(C)Cc3cccs3)o2)c1 (stereo not given)	0.9%	5%	-9%	2.0	9%	6	0
CC(=O)Nc1ccc(C2(c3ccc(NC(C)=O)cc3)C(=O)Nc3ccccc32)cc1	.	10%	5%	2.9	?	-2	5
O=C1CN(C(=O)COC(=O)CNC(=O)c2ccccc2)c2ccccc2N1	?	-7%	-7%	1.5	?	0	4
O=C(Nc1cc([N+](=O)[O-])ccc1F)C1CCN(S(=O)(=O)c2cccs2)CC1	-14%	.	-5%	.	5%	.	-14
CC(C)(C)NC(=O)CN(Cc1ccc2c(c1)OCO2)C(=O)CNS(=O)(=O)c1ccccc1	-9.1%	17%	9%	3.0	-3%[15.4 µM]	1	-9
CN(C)C(CNC(=O)c1cc2ccccc2o1)c1ccccc1 (stereo not given)	-5.1%	.	7%	.	-3%	.	9
COC(=O)c1ccc([C@@H](O)[C@H](C)C(=O)CC(=O)OC(C)(C)C)cc1	-3.9%	7%&8%	3%	3.3&9.0	.	20	-10
O=C1NC(=S)N/C1=C/c1ccc(Oc2ccc(C(F)(F)F)cc2[N+](=O)[O-])c(Cl)c1	-4.7%	9%	0%	4.6	25%	3	5
CCc1ccc(OCC(=O)Nc2ccc(N3CCN(S(C)(=O)=O)CC3)cc2)cc1	0.4%	5%	15%	1.8	-1%[15.4 µM]	-1	5
COc1ccccc1NC(=O)c1ccc(CN2CCOCC2)cc1	-15%	8%	-6%	1.5	-25%	11	5
O=C(CCN1C(=O)COc2ccccc21)N1CCN(c2ccccc2)CC1	-2.3%	12%	1%	0.4	-12%[15.4 µM]	6	4
CC(C)C1C(=O)N(Cc2cn(Cc3ccco3)nn2)CCS(=O)(=O)N1Cc1ccc(-c2ccncc2)cc1 (stereo not given)	-0.5%	.	.	.	?	.	4
Cn1c(NC(=O)c2ccco2)c(-c2ccc(Cl)cc2)c(=O)c2ccccc21	-1.2%	-2%	6%	0.8	?	-5	7
Cc1nnc(SCC(=O)Nc2cccc(N)c2)n1-c1ccccc1	0.2%	20%	4%	3.0	-1%[15.4 µM]	30	-1
COc1ccccc1C1CC(c2ccccc2)=NN1S(=O)(=O)c1ccccc1 (stereo not given)	-3.4%	0%	-9%	5.1	28%	-3	-11
S=C(NCc1ccco1)Nc1ccccc1	.	19%	-3%	-2.4	20%[15.4 µM]	-4	5
COc1cccc(CNC(=O)c2cc(S(=O)(=O)N3CCCCC3)c[nH]2)c1	-1.8%&-0.2%	4%	-3%	-2.0	14%	-25	-1
COCCN(C(=O)c1csnn1)C(C(=O)NC1CCCC1)c1ccccc1 (stereo not given)	.	-11%	6%	.	-37%[inhibitor]	-5	-20
CS(=O)(=O)c1ccc(Cl)c(NC(=O)CSc2nnc(-c3cccs3)n2N)c1	-1.3%	.	15%	.	-28%	17	3
C=CC(=O)N(CCC)C(c1ccccc1)c1ccccc1OC (stereo not given)	2.0%	.	-13%	.	-4%	-21	4
COc1ccc2[nH]c(C(=O)Nc3ccc(F)cc3Br)cc2c1	.	-16%	4%	3.4	21%[15.4 µM]	.	8
C/C(Nc1ccccc1C(F)(F)F)=C1/CCOC1=O	-1.9%	-4%	5%	-2.2	1%[15.4 µM]	1	-14
COc1cccc(CNC(=O)CSc2nnc3c(n2)[nH]c2ccc(C)cc23)c1	.	11%	6%	-1.7	17%	9	8
O=C1CCCC(=O)N1c1ccc(F)cc1	.	12%	5%	-0.6	?	-3	2
CCN1CCN(C(=O)c2ccc3c(c2)N(Cc2ccccc2F)C(=O)c2ccccc2S3(=O)=O)CC1	-1.0%&0.3%	2%	-10%	.	-7%	0	0
Cc1nc(N(C)C)c2sc(=S)n(-c3ccccc3)c2n1	0.4%	6%	-7%	-4.1	-30%[inhibitor]	-38	.
O=C(c1ccsc1)N1CCN(C(=O)c2cccs2)CC1	0.2%	23%	10%	7.9	-6%	-43	0
Cc1ccc(N(CC(=O)Nc2ccccc2C(=O)NCc2ccco2)S(=O)(=O)c2ccccc2)cc1C	22µM*	18%	-4%	3.4	-55%[inhibitor]	6	-13
COc1cc(NC(=O)CN2C(=O)C(c3ccccc3)=NC2(C)C)cc(OC)c1	-0.7%	-13%	-3%	-3.5	-16%	-2	-4
Cc1ccc(S(=O)(=O)N2CCN(C(=O)CNC(=O)c3ccc(Br)o3)CC2)cc1	-1.6%	.	-9%	.	0%	-4	2
CCN(C[C@H]1N[C@@](CC)(C(=O)OC)[C@H]2C(=O)N(C)C(=O)[C@@H]12)C(=O)COC	-2.7%	.	2%	.	.	.	9
CCOc1ccc(NS(=O)(=O)c2ccc(C(=O)N3CCCCC3)cc2)cc1	0.1%	11%	-17%	-3.0	-5%	-1	3
CC(C)n1ncc2c(C(=O)N3CCN(Cc4ccc(Br)s4)CC3)cc(C3CC3)nc21	-7.2%	.	?	.	?	-7	-3
CC(=O)Nc1ccc(C(=O)Nc2cc(C)on2)cc1	1.1%	9%	-7%	2.7	-5%[15.4 µM]	18	4
CC(=O)Nc1ccc2c(c1)nc(C)n2-c1ccccc1	-2.9%	2%	3%	3.5	16%	4	.
C=CCn1c(C)cc(C(=O)COC(=O)/C=C/c2cccc(OC)c2)c1C	-18%	5%	-25%	-2.1	3%	3	?
COC(=O)c1ccc(CNC(=O)c2ccc(OC)c(S(=O)(=O)NC3CCCC3)c2)cc1	0.9%	.	-5%	.	21%	13	1
COC(=O)c1cc(Br)c(=O)n(Cc2cccnc2)c1	-4.3%	10%	-8%	2.4	-21%	7	-2
COc1ccc(C2CC(=O)Nc3cc(C)c(C)cc32)c(OC)c1OC (stereo not given)	2.6%	27%	-5%	0.7	-66%[inhibitor]	-8	-2
N#C/C(=C\c1cccc(Oc2ccccc2)c1)C(=O)N1CCOCC1	.	-29%	1%	1.5	12%[15.4 µM]	-11	2
CC(C)NC(=O)COC(=O)c1ccc(NS(=O)(=O)c2ccc3c(c2)OCCO3)cc1	-10%	4%	-11%	0.7	10%	-5	0
Cc1cc(C)cc(NS(=O)(=O)c2coc(C(N)=O)c2)c1	1.8%	3%	8%	5.7	?	2	5
Nc1sccc1C(=O)c1ccc(Cl)cc1	-2.9%	?	7%	?	-30%	-4	-16
Clc1ccc(Cl)c(OCCN2CCCC2)c1	-0.5%	4%	6%	-2.0	-27%	19	.
COc1ccc(C)cc1-n1cnc2sc(C)c(C)c2c1=O	1.0%	.	.	.	8%	.	2
Cc1ccc(NC(=O)c2ccc(CSc3nnnn3C)cc2)cc1	-0.6%	6%	4%	8.7	-26%	-7	-1
N#C/C(=C\c1cccs1)C(=O)Nc1ccccn1	.	4%	-9%	-16	-13%	13	5
COc1ccc(C(=O)Nc2nc(CC(=O)NCCc3ccccc3OC)cs2)cc1	-0.2%	.	-8%	.	-2%[15.4 µM]	24	-3
Cc1cccc(CSCCNC(=S)Nc2ccccc2)c1	25µM*	2%	3%	2.6	2%	-12	2
CCOc1ccccc1N1CCN(C(=O)C(Sc2ccccc2)c2ccccc2)CC1 (stereo not given)	-27%	15%	-7%	-0.5	-31%[inhibitor]	-2	-13
Nc1cc(C(=O)N2CCN(c3ccc([N+](=O)[O-])cc3)CC2)ccc1N1CC2CC(C1)c1cccc(=O)n1C2 (stereo not given)	-1.1%	-1%	?	.	?	-6	-12
COc1cccc(C(=O)NCC(c2ccco2)N2CCc3ccccc3C2)c1 (stereo not given)	-1.5%	.	-19%	.	7%	20	2
COc1cc(C(=O)Oc2cccc(C(=S)N3CCOCC3)c2)cc(OC)c1OC	?	?	-2%	-0.6	-38%[inhibitor]	-3	-6
CCOC(=O)C1CSc2[nH]c(=O)sc2C1c1ccccc1 (stereo not given)	-4.4%	40µM*	?	7.2	16%	21	-3
CN(C)c1nc(-c2ccccc2)ncc1S(=O)(=O)c1ccccc1	-3.4%	-5%	-8%	-1.1	3%	-9	11
Cc1nc(C)c(C(=O)NCc2ccccc2Cl)o1	-0.5%	89µM*	-1%	-2.7	-45%[inhibitor]	-4	4
CN(C)C(=O)c1c([N+](=O)[O-])c(C(C)(C)C)nn1C	-0.1%	-8%	19%	-2.9	?	-7	6
Brc1ccc(NC2=Nc3ccccc3CC2)cc1	-1.8%	6%	17%	2.5	0%	?	-2
Next section
SMILES	ClpP mod	Sfp inh	gsp antagonist	Menin MLL FP FL	gsp ag	TRPV1 potentiator	CtBP-E1A blk
O=C(NCCCn1ccnc1)c1cc(Br)c(Br)s1	0.0%	6%	1%	-3.9	-11%	7	.
COc1cc(/C=N/Nc2nc(C)cc(=O)[nH]2)ccc1OC(=O)c1cccnc1	.	-3%	-3%	-2.0	-39%	4	-17
CC(C)(OC(=O)c1ccc(F)cc1)c1cc2ccccc2c(=O)o1	0.7%	.	-8%	.	.	-6	19
COc1ccc(C(C)=O)c(OC(=O)c2ccc(OC)c(OC)c2)c1	1.7%	6%	9%	-3.5	1%	-7	9
Cc1nnc2sc(-c3ccc(NC(=O)c4ccc(-c5ccc(Cl)cc5Cl)o4)cc3)nn12	-7.4%	.	-3%	.	23%	.	7
O=Cc1c(NCCCN2CCCC2=O)c2ccccc2[nH]c1=O	1.7%	16%	-10%	-0.4	11%[15.4 µM]	9	-14
O=C(N/N=C/c1cn(-c2ccccc2)nc1-c1cccs1)c1ccncc1	1.6%	9%	?	9.1	-2%	-8	-9
